# T cruzi repl: T. cruzi replication inhibition. T. cruzi beta-gal in NIH3T3, luminescence, 90 h. inhibition, % (concentration not given with the values). 300,000 compounds, 1.4% hits. AID 1885;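 active means mean inhibition across valid replicates above about 55%, limit read from the data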;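 further: signal also drops with host cell toxicity which is not excluded here; 0% = plate median of DMSO wells and 100% = zero luminescence signal; higher percent means less beta-gal luminescence so fewer parasites; stock transfer was 50 nL into about 50 µL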
# FGF22 binding: shifts melting point of recombinant human FGF22. calls only at 9.99 µM. recombinant FGF22 thermal shift, SYPRO orange fluorescence; percent of sucrose octasulfate shift, DMSO zero. Q9HCT0. 340,000 compounds, 1.5% hits. AID 651658;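 active means melting point raised past a set limit in the mean and every replicate; three in four hits are not shown here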
# Target sequence (Q9HCT0 whole entry, looked up): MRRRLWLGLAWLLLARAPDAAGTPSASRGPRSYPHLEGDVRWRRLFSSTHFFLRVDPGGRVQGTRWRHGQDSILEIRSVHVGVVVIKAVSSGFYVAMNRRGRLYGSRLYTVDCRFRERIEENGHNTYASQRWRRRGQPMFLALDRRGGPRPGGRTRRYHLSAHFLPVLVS
# MLL AF4-AF9 inh: blocks AF4 peptide binding to human AF9 | P42568 | AlphaScreen, biotin-AF4 peptide binding to FLAG-AF9 | inhibition, % at 10 µM | 350,000 compounds, 0.47% hits;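 active means every replicate reaching a set inhibition limit, whatever the replicate mean, cut at about 25% in these data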;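 further: 0% = plate neutral control median and 100% = total signal loss; the record names both 10 and 1 µM as test concentration; the first replicate is given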
# Target sequence (P42568 whole entry, looked up): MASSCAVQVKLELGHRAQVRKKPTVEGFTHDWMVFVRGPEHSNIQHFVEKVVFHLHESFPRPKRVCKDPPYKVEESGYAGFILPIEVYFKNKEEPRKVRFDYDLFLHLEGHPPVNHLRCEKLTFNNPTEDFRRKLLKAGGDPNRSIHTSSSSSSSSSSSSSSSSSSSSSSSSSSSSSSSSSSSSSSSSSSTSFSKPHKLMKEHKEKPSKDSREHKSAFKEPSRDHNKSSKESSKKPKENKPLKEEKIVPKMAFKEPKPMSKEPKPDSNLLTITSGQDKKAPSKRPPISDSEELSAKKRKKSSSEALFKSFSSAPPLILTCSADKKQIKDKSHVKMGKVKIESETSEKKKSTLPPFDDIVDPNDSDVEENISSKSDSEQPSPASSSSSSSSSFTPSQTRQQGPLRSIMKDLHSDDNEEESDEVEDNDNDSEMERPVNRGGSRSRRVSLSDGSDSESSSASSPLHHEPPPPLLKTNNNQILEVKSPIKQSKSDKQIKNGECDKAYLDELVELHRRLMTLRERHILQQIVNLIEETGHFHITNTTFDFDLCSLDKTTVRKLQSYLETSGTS
# Ecoli growth: E. coli growth inhibition; Escherichia coli growth, OD600, 23 h; stronger effect = lower value; 330,000 compounds, 0.21% hits; OD600 absorbance (concentration not given with the values);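 active means OD600 absorbance below the run mean of sample wells minus 3.6 SD, in any replicate, cut at about 0.56 in these data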;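 further: stock transfer was 300 nL into about 60 µL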
# A1 inh: inhibitors of the anti-apoptotic protein A1, read as caspase activation. AID 2462. caspase activation, % (concentration not given with the values). 330,000 compounds, 0.066% hits. MEF A1-2A-BIM cells, Caspase-Glo 3/7 luminescence, 3 h; percent of clofoctol response, vehicle zero;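 active means over half of replicate activation scores above 10%, or exactly half above 10 with the replicate mean above 10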;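 further: wells of about 30 µL received 50 nL stock; many hits fall short of the cut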
# rRNA inh HTS: inhibits bacterial ribosomal RNA function over humanized ribosomes; GFP signal change (wild-type ribosome), % (concentration not given with the values); AID 720706; E. coli WT GFP vs humanized-ribosome RFP mutants, fluorescence, 24 h; stronger effect = lower value; DMSO median 0, no signal -100; 350,000 compounds, 1.6% hits;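 active means significant combined selectivity score with lowered wild-type GFP, culture density cut under 30%, mutant RFP and density less affected; inactive means any of these conditions unmet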; further: one replicate is shown; some compounds called inactive have numbers as strong as hits
# Beta cell apopt: blocks beta cell apoptosis; protection from apoptosis, % (test concentration not listed); 300,000 compounds, 0.8% hits; INS-1E cytokine-induced death, ATP luminescence, 48 h; percent of positive-control rescue, neutral wells zero;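 active means all replicates at 75% or more, or half of them and the mean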;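 further: 0% = cytokine-treated negative control wells and 100% = positive control rescue; higher means more ATP so stronger rescue from cytokine killing; wells of about 40 µL received 100 nL stock; the first replicate is given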
# UCH37 inh: human UCH37 deubiquitinating enzyme inhibition. inhibition, % (no concentration beside the values). purified proteasome/UCH37, Ub-AMC cleavage fluorescence. 330,000 compounds, 0.33% hits. AID 588478;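 active means mean of two replicates above 20%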;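 further: 0% = compound-free wells with enzyme and 100% = wells lacking proteasome; stock transfer was 100 nL into about 20 µL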
# Target sequence (Q9Y5K5 whole entry, looked up): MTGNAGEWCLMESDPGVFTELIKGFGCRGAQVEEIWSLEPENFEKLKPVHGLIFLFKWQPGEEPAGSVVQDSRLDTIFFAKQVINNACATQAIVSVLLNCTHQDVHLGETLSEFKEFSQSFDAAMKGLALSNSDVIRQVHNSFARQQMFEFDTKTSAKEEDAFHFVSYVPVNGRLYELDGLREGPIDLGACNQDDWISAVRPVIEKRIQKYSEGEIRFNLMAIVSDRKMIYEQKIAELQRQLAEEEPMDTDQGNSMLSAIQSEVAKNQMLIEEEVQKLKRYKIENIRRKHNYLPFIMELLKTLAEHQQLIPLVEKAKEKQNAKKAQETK
#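 Test system – human UCH37 enzyme supplied as purified proteasome complex · Incubation – 30 min preincubation with enzyme, 25 min cleavage at room temperature · Detection – AMC fluorescence from Ub-AMC cleavage, excitation 355 nm, emission 460 nm · Benchmarks – no-proteasome wells (full inhibition) and compound-free wells (no inhibition)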
# rRNA inh HTS OD600: recorded beside rRNA inh HTS, whose call it bears; OD600 change, %; measured here: OD600 growth;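 optical density of the mix in the first replicate; 0 = DMSO median and -100 = no signal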
# rRNA inh HTS RFP: second read-out of rRNA inh HTS, no call of its own (marks repeat the call); RFP signal change, %; measured here: RFP humanized mutant strains;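 first replicate; 0 = DMSO median and -100 = no signal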
# * hit, by the source's call; i = inactive; . = no result given; + = active, no number. This is a subset, so the mix of outcomes need not match the whole.
SMILES,T cruzi repl,FGF22 binding,MLL AF4-AF9 inh,Ecoli growth,A1 inh,rRNA inh HTS,rRNA inh HTS OD600,rRNA inh HTS RFP,Beta cell apopt,UCH37 inh
CCCNC(=O)Cn1c(=O)oc2cc(S(=O)(=O)N3CCCC3)ccc21,-5,i,-1.1,0.76,-0.1,10,13,0.1,2,3.0
Nn1c(SCC(=O)Nc2ccc3c(c2)CCC3)nnc1C1CC1,.,i,-0.5,0.71,0.8,4,13,0.5,-3,2.4
O=S(=O)(NCCC1=CCCCC1)c1ccc(Br)cc1,10,i,-1.7,0.71,0.2,-60,-78,-20,0,2.2
CCOc1ccc(N(CCC#N)S(=O)(=O)c2ccc(OC)cc2)cc1,-17,.,.,0.77,-0.6,.,.,.,0,-0.1
CN(C)CCCN(C(=O)c1nc2ccccc2s1)c1nc2ccc(F)cc2s1,67*,i,0.6,0.67,-0.1,17,6,4.1,-6,-77
C/C(=C\C1CCCCC1)C(NC(=O)c1ccc(C(F)(F)F)cc1)c1ccc(-c2ccccc2)cc1 (stereo not given),9,i,-5.0,.,0.4,13,2,-5.6,3,0.9
Cc1ccc(S(=O)(=O)c2ccc(Oc3cccc(C)c3)cc2)cc1,19,.,.,0.73,0.3,.,.,.,1,1.7
COc1cccc(-c2nc(CS(=O)(=O)CC(=O)NCC(C)c3ccccc3)c(C)o2)c1 (stereo not given),12,i,-2.2,0.69,0.0,-1,-5,-4.4,1,3.3
Cn1c(SCC(=O)NCC2CCCO2)nnc1-c1ccco1 (stereo not given),.,i,1.0,0.69,.,-7,-2,1.0,.,0.5
COc1cc(/C=C/C(=O)O)cc(S(=O)(=O)Nc2ccc(F)cc2)c1OC,3,.,.,0.69,0.2,.,.,.,-7,1.4
CC(C)c1nc(SCC(=O)Nc2ccc3c(c2)OCCO3)n[nH]1,0,i,-5.3,0.71,0.5,-5,2,-1.8,1,2.7
O=C(c1ccc2c3c(cccc13)CC2)C1CCCN(Cc2cccnc2)C1 (stereo not given),62*,i,.,0.67,0.6,-17,-14,8.8,-5,-135
COCc1ccc(CN2CCCC(CO)(Cc3cccc(Cl)c3)C2)o1 (stereo not given),9,i,2.0,0.71,-0.2,2,-4,-8.3,-8,5.9
COc1ccc(CCN(CC(=O)NC(C)(C)C)C(=O)Cn2nnc(-c3ccc(C)o3)n2)cc1OC,8,i,-0.1,0.65,-0.1,9,5,2.9,-2,5.9
CCN(CC)S(=O)(=O)c1ccc(/C=C/C(=O)OCC(=O)Nc2ccc(S(N)(=O)=O)cc2)cc1,-10,i,0.3,0.64,0.3,2,8,1.5,-1,4.4
O=C1NCCC/C1=N\Nc1ccc(Br)cc1,7,i,-0.2,.,-0.3,0,2,-0.3,-4,.
COc1ccc(/C=N/NC(=O)c2ccccc2OC)cc1COc1ccccc1[N+](=O)[O-],-2,i,-0.7,.,0.0,8,9,0.8,-7,.
CCOC(=O)c1cnn(-c2ccccc2)c1NC(=O)c1ccc(C)cc1,-5,.,.,0.67,0.3,.,.,.,1,0.3
CCOC(=O)N/N=C(C)/C=C/c1ccco1,-6,i,-1.4,.,0.3,8,12,1.1,0,.
CC(Oc1ccc(Cl)cc1Cl)C(=O)Nc1ccncc1 (stereo not given),-4,.,.,0.71,2.0,.,.,.,0,3.3
COc1ccc(CN(C)C(=O)c2ccc(NS(=O)(=O)c3ccccc3)cc2)c(OC)c1,8,i,-0.7,0.68,-0.4,1,-18,7.2,-11,1.1
COC(=O)c1cn(C(=O)c2cc(Cl)ccc2Cl)c2ccccc12,-7,i,-21,0.62,-0.4,-2,7,-0.3,0,2.6
CN(Cc1ccccc1)C(=O)CN1C(=O)NC(C)(c2ccc(Cl)cc2)C1=O (stereo not given),6,i,-2.6,0.67,0.6,-2,2,2.5,-6,3.5
Nc1ccc(S(=O)(=O)NC2(C(F)(F)F)NC(=O)N(Cc3ccccc3)C2=O)cc1 (stereo not given),-1,i,-1.7,0.69,0.7,7,15,-0.3,-5,5.1
COc1cccc(-c2csc(N3CCN(C(=O)NC45CC6CC(CC(C6)C4)C5)CC3)n2)c1,44,.,.,0.74,0.0,.,.,.,18,-3.5
CCC(=O)NC(=S)Nc1cccc(C(C)=O)c1,3,.,.,0.69,0.3,.,.,.,-1,0.5
c1cncc(-c2cn(C[C@H]3CC[C@@H]([C@@H]4CC[C@H](Cn5cc(-c6cccnc6)nn5)O4)O3)nn2)c1,2,i,17,.,2.1,-1,11,0.2,-4,25*
Cc1c(N(C(=O)c2cnccn2)C2(C(=O)NC3CCCC3)CCCCC2)c(=O)n(-c2ccccc2)n1C,-11,i,-1.5,0.74,1.3,15,11,7.0,-4,1.1
COc1ccc(NC(=O)C2CCCN(S(=O)(=O)c3ccc4c(c3)CCCN4C(C)=O)C2)cc1Cl (stereo not given),15,i,-0.6,0.7,-0.7,-11,-17,4.4,5,3.2
COc1cc(-c2noc(C)c2C(=O)NCC[C@@H]2CCCN2C)cc(OC)c1OC,.,i,0.4,0.71,-0.2,5,18,2.8,0,4.8
O=C1CCC(CCC(=O)N2CCCC(C(=O)c3ccc(Cl)cc3)C2)=NN1 (stereo not given),-4,i,1.9,0.67,-0.7,5,4,0.0,-1,1.4
Nc1nc(O)c(Sc2ccccc2[N+](=O)[O-])c(=O)[nH]1,-10,+,7.9,0.71,0.6,4,9,-1.8,-4,7.0
Brc1ccc(-c2csc3[n+]2CCCCC3)cc1,4,i,-1.2,0.66,0.0,16,14,1.2,-10,0.6
Cc1cnc(C(=O)Nc2cccc3ncccc23)cn1,-8,.,.,0.74,-0.1,.,.,.,-1,2.1
COc1cccc(/C=C/C(=O)OCC(=O)Nc2cc(C(F)(F)F)ccc2Cl)c1,-30,.,.,0.68,-1.6,.,.,.,3,-5.8
CC1(C(=O)O)CCC(C(=O)Nc2ccc(F)cc2)C1(C)C (stereo not given),-3,i,-2.0,0.69,0.1,8,9,-5.1,.,1.3
CCOC(=O)c1ccc(Oc2nc(OC)nc(N(C)C)n2)cc1,-6,.,.,0.71,1.1,.,.,.,0,4.4
O=C(O)COc1ccccc1/C=N/NC(=O)CSc1nc2ccccc2s1,0,i,-0.9,.,1.6,1,7,-6.4,-6,.
COc1ccc(C(=O)NCCc2nnc3ccc(SCC(=O)NCCc4ccc(OC)c(OC)c4)nn23)cc1,-13,i,-0.4,0.68,0.5,11,8,0.3,-11,2.4
COc1ccccc1NC(=O)CSc1nc(SC)ns1,-6,i,-2.6,0.69,-0.2,-5,-22,-2.9,.,3.2

# Only T cruzi repl, FGF22 binding and Beta cell apopt, for some of the entries so far:
compound | T cruzi repl | FGF22 binding | Beta cell apopt
CN(Cc1ccccc1)C(=O)CN1C(=O)NC(C)(c2ccc(Cl)cc2)C1=O (stereo not given) | 6 | i | -6
Nc1ccc(S(=O)(=O)NC2(C(F)(F)F)NC(=O)N(Cc3ccccc3)C2=O)cc1 (stereo not given) | -1 | i | -5
COc1cccc(-c2csc(N3CCN(C(=O)NC45CC6CC(CC(C6)C4)C5)CC3)n2)c1 | 44 | . | 18

# (continued)
SMILES,T cruzi repl,FGF22 binding,MLL AF4-AF9 inh,Ecoli growth,A1 inh,rRNA inh HTS,rRNA inh HTS OD600,rRNA inh HTS RFP,Beta cell apopt,UCH37 inh
CCOc1cccc(/C=N/NC(=O)c2cc(-c3cccn3C)n[nH]2)c1O,1,i,6.4,.,-1.0,-17,-3,0.2,.,.
Cc1ccccc1CS(=O)(=O)CC1(O)CCN(C(=O)c2cccc(C(F)(F)F)c2)CC1,-8,.,.,0.71,1.0,.,.,.,1,1.9
Cn1c(CNC(=O)c2ccccc2)nnc1SCC(=O)Nc1nccs1,-7,i,0.5,0.67,-0.5,18,13,0.9,-5,0.1
CC(C#N)(CCc1ccccn1)CCc1ccccn1,.,i,-0.8,0.66,.,2,4,-2.3,.,-1.5
CN(CCc1ccccn1)C(=O)CCC1CCCN(C(=O)CCOc2ccccc2)C1 (stereo not given),11,i,0.2,0.73,0.5,2,2,0.9,0,0.5
COc1ccc(C(=O)OCC#CCSc2nnc(-c3cccc4ccccc34)o2)cc1,.,i,4.7,0.72,-2.2,0,0,-6.5,-10,-0.9
NNC(=O)c1cc(-c2ccccc2)sc1N,-12,i,0.9,.,-0.1,-6,6,1.7,-4,.
Cc1cccc(C(C)C)c1NC(=O)COC(=O)c1cc2ccccc2oc1=O,.,i,0.6,0.62,-0.2,4,11,1.6,-3,-14
C=CCn1c(SCC(=O)c2ccc(O)c(O)c2)nnc1-c1ccccc1OC,-12,i,-8.9,0.71,-1.2,4,6,-3.0,-7,6.1
COc1ccc(OC)c(-c2nc3ccccc3nc2-c2ccccc2)c1,12,i,-1.8,0.67,-0.9,-11,-23,-2.2,.,-12
CN(c1ccccc1)S(=O)(=O)c1cccc(NC(=O)CSc2nncs2)c1,-37,.,.,0.68,0.9,.,.,.,29,2.1
CC(C)CN(CC(C)C)S(=O)(=O)N1CCC(C(=O)NCc2cccnc2)CC1,1,i,0.6,0.64,-0.7,-15,-3,-3.3,0,-1.7
COc1cccc(CNc2ccc(S(=O)(=O)Nc3nccs3)cc2)c1O,-35,.,.,0.72,-0.2,.,.,.,2,-3.7
COCCCN(C(=O)Nc1ccc(C)c(C)c1)C(C)c1ccccn1 (stereo not given),-9,i,-8.4,0.68,-1.6,-4,1,-2.1,.,4.4
Cc1ccccc1C(=O)Nc1ccc(N2CCN(C)CC2)nc1,-8,.,2.6,0.68,-0.9,14,9,-5.7,-4,4.2
COc1cc(C=O)ccc1OCC(=O)N1CCCC1,-4,i,-0.2,0.68,0.0,9,16,3.6,-3,0.2
Cc1ccc(S(=O)(=O)N2CCN(C(=O)CSC3CCCC3)CC2)c(C)c1,10,.,.,0.67,-0.6,.,.,.,0,2.5
CCOC(=O)C1CCCN(C(=O)Nc2ccccc2)C1 (stereo not given),-23,.,.,0.62,0.7,.,.,.,0,-0.3
O=C(CSc1nnnn1-c1ccccc1)c1ccc(O)cc1O,0,i,-9.8,0.65,-1.1,6,-1,4.2,-4,4.5
CC1CCN(S(=O)(=O)c2ccc(NC(=O)CCN3C(=O)c4ccccc4C3=O)cc2)CC1,-19,i,11,0.72,0.5,4,-4,4.7,5,2.3
COc1ccccc1NC(=O)Nc1nc2ccc(S(N)(=O)=O)cc2s1,3,i,1.8,0.66,-1.9,-16*,-1.5*,3.2*,0,-0.1
CN(C)/C=N/C(=S)Nc1ccccc1Cl,-6,i,-1.5,.,-0.6,9,-3,-0.8,-1,.
Cn1c(SCc2nnc(-c3ccccc3)o2)nc2ccccc21,-2,i,0.9,0.71,0.5,-13,-18,-4.8,-2,2.1
Cc1ccc(C(=O)NNC(=O)c2cc3cc4ccccc4nc3s2)cc1,7,.,.,0.62,0.5,.,.,.,-4,-8.4
C#CCOCCOCCOCCNc1nc(N2CCN(C(=O)[C@H](CCCCN)n3cc([C@@H](N)CC(C)C)nn3)CC2)nc(N2CCN(C(=O)[C@H](Cc3cc4ccccc4[nH]3)n3cc([C@@H](N)Cc4ccc(O)cc4)nn3)CC2)n1,-10,.,.,.,-0.4,.,.,.,-2,-0.2
